# Assay outcomes as filed in PubChem.
# VCAM-1 augmentation: enhancers of VCAM-1 display on endothelial cells, imaging, high-content imaging, pooled HUVEC, TNFa stimulus (AID 457); Pooled HUVEC, TNFa-induced VCAM-1 immunofluorescence imaging; hits of this screen are not shown here; calls only; 10,000 tested, 0.2% active;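 active means a top-ranked rise in VCAM-1 staining upheld on image or statistical review; inactive means the rest, including candidates rejected on review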;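 further: compounds tested at 5 µM in the well; cells exposed to compound for 24 hours before fixing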
# FPRL1 ligand: human FPRL1 ligand, with FPR counter-screen; P25090; FPRL1-expressing cells, fluorescent ligand binding inhibition, flow cytometry; inhibition, %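 (tested at 6.7 µM)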; 24,000 tested, 0.3% active; AID 441;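 further: 0% = buffer alone and 100% = receptor blocker peptide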
# Target sequence (P25090 whole entry, looked up): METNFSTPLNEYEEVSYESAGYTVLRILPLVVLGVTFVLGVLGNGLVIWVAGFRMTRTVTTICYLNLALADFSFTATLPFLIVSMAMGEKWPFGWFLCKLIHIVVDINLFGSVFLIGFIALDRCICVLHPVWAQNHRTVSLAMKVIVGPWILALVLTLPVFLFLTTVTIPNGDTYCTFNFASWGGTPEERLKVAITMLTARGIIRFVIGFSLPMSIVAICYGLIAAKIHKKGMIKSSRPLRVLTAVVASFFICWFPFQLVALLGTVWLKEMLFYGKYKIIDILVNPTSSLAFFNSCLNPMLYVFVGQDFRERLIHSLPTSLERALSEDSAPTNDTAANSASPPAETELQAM
# VCAM-1 down: suppression of endothelial VCAM-1 upregulation – cell-based, plate reader, pooled HUVEC, TNFa stimulus (AID 454) | HUVEC TNFa-induced VCAM-1 surface immunofluorescence, plate reader; numbers were filed only for top-ranked candidate wells | inhibition, % at 5 µM | 10,000 tested, 0.2% active;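 active means compound among top-ranked inhibitors of TNF-induced VCAM-1 adhesion protein staining, with the hit upheld by image or statistical review; inactive means the rest, including hits rejected on review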;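 further: 0% = TNFa with vehicle and 100% = cells without TNFa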
# VCAM-1 down imaging: inhibitors of TNFa-induced VCAM-1 surface display, imaging, high-content imaging, pooled HUVEC, TNFa stimulus (AID 456); 10,000 tested, 0.2% active; inhibition, % at 5 µM, or IC50 in µM where a hit was titrated; HUVEC TNFa-induced VCAM-1 surface expression, immunofluorescence imaging; numbers were filed only for top-ranked candidate wells;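 active means top tenth filtered wells with inhibition above zero that passed visual or statistical confirmation; inactive means the rest, including hits rejected on review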;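 further: 0% = stimulated vehicle wells and 100% = unstimulated cells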
# FPR ligand: binds the human formylpeptide receptor FPR; inhibition, %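 (tested at 6.7 µM)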; 24,000 tested, 0.74% active; FPR-expressing cells, fluorescent ligand binding, flow cytometry;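 further: 0% = buffer wells and 100% = receptor blocker peptide wells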
# Target sequence (P21462 whole entry, looked up): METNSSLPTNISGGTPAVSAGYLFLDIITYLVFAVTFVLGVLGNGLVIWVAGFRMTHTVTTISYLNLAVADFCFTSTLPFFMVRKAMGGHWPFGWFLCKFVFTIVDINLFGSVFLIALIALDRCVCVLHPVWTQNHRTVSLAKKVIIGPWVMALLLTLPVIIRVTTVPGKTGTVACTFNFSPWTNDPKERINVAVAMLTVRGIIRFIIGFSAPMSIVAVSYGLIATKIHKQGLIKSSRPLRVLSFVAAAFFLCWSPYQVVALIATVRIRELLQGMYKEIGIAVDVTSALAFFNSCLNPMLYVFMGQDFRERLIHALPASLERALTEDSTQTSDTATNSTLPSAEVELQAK
# The depositor's hits bear a star; i = inactive; / = no result given.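 How the source made its calls, unless noted: active means mean above 30%; inconclusive means self-fluorescent; inactive means the rest.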
# Second line of a record – VCAM-1 augmentation, FPRL1 ligand, VCAM-1 down, VCAM-1 down imaging, FPR ligand
O=C(CCCC(=O)N(CC(=O)NC1CCCCC1)Cc1ccc2c(c1)OCO2)Nc1ccccn1
    i, -3.5, i, i, -0.5
Cc1ccc(C(C#N)N2CCOCC2)cc1 (configuration not stated)
    /, -6.2, /, /, 0.3
O=C(NCc1cccs1)c1cc2c(s1)CCCC2
    i, 1.7, i, i, -3.7
CC(C)C(=O)Nc1cccc(NC(=O)c2cccnc2)c1
    i, 2.8, i, i, -1.1
O=C(COC(=O)c1ccc(NS(=O)(=O)c2ccc3c(c2)OCCO3)cc1)NCC1CCCO1 (configuration not stated)
    i, -2.8, i, i, 1.3
O=C1c2ccccc2C(O)N1CCN1CCOCC1 (configuration not stated)
    /, 1.2, /, /, -1.8
CCc1ccc(NC(=O)CSc2nc3ccccc3c(=O)n2CCN2CCOCC2)cc1
    /, 0.2, /, /, -0.9
COc1ccc(C2=NOC(C(=O)NCCN3CCOCC3)C2)cc1 (configuration not stated)
    /, -1.2, /, /, 9.9
N#Cc1c(NC(=O)CSc2nnnn2C2CCCC2)sc2c1CCCC2
    i, -12.5, i, i, -1.0
O=C(O)C1CC=CCC1C(=O)Nc1ccc(S(=O)(=O)N2CCCc3ccccc32)cc1 (configuration not stated)
    i, 1.9, i, i, 3.0
O=C(CSc1ccc2nnc(-c3ccccc3)n2n1)NCc1ccco1
    /, 0.5, /, /, -5.9
CCCCc1noc2c1/C(=N\O)CC(c1ccccc1)C2 (configuration not stated)
    i, -2.1, i, i, -5.9
O=C(c1ccc(Cl)cc1)N1CCCCC(Sc2nnc(-c3ccc4c(c3)OCO4)o2)C1=O (configuration not stated)
    i, -1.6, i, i, -6.0
CSc1nc(N)nc(SCCS(=O)(=O)c2ccc(Cl)cc2)c1C#N
    i, 1.0, i, i, 5.8
O=c1[nH]c2c(s1)C(c1ccco1)C1C3CCC(C3)C1S2 (configuration not stated)
    i, -9.6, i, i, -7.4
Cc1cc(Oc2ccc(=O)n(C)n2)nc(Oc2ccc(=O)n(C)n2)n1
    /, 10.4, /, /, -0.7
COc1ccc(-c2cc(C(F)(F)F)nc(N3CCN(c4ccc(F)cc4)CC3)n2)cc1OC
    i, 2.1, i, i, -4.2
COC(=O)c1ccccc1NC(=O)c1ccc(COc2ccccc2)o1
    i, -3.9, i, i, -1.9
CCOC(=O)C1CCCCN1C(=O)CCc1c(C)nc2ncnn2c1C (configuration not stated)
    /, 2.7, /, /, -1.9
CS(=O)(=O)N1CCCC(C(=O)NCc2ccccc2Cl)C1 (configuration not stated)
    i, 2.1, i, i, -0.6
CCn1cc(S(=O)(=O)CC(=O)Nc2ccc(OC)cc2)c2ccccc21
    i, -7.5, i, i, -1.2
CC(C)(C)C(=O)Cn1c[n+](N)cn1
    i, 4.8, i, i, -0.6
CNC(=O)c1ccccc1NC(=O)c1cccc(S(=O)(=O)N2CCC(C)CC2)c1
    /, 0.6, /, /, 2.2
COC(=O)c1ccc(CN(Cc2ccc(C(=O)OC)o2)C(C)(C)C)o1
    /, 0.2, /, /, -6.3
Cn1c(C(=O)N2CCN(c3cccc(C(F)(F)F)c3)CC2)cc2sccc21
    /, 2.0, /, /, 6.9
COc1ccc(NC(=O)C2CCN(S(=O)(=O)c3cccnc3)CC2)cc1Cl
    /, -3.8, /, /, -1.3
O=C(OC1CCc2ccccc2C1=O)c1ccccc1O (configuration not stated)
    i, -1.5, i, i, 2.1
COc1cccc(/C=c2\sc3nc(-c4cccs4)nn3c2=O)c1OC
    /, 10.3, /, /, 0.9
[O-][n+]1onc2c1CCc1nnc(-c3ccccc3)cc1-2
    i, -3.4, i, i, -8.1
O=C(Cn1cnc2c(nnn2Cc2ccc(Cl)cc2)c1=O)NCc1ccco1
    /, -10.8, /, /, 8.8
Nc1c(C(=O)NCCN2CCOCC2)c2nc3ccccc3nc2n1-c1ccc2c(c1)OCO2
    i, 2.9, i, i, 6.8
COC(=O)c1cc(S(=O)(=O)N2CCOCC2)c(N2CCOCC2)cc1N1CCOCC1
    i, -1.5, i, i, 0.4
CCCCOn1c(C)c(C(=O)OCC)c2c3no[n+]([O-])c3ccc21
    /, 1.2, /, /, -1.8
CCOC(=O)N1CCN(CC(=O)c2ccc3c(c2)CCN3)CC1
    /, -13.5, /, /, -14.8
COc1ccc(-c2nnc3ccc(SCC(=O)NCC4CCCO4)nn23)cc1 (configuration not stated)
    /, 11.8, /, /, -0.2
COc1cc(C2C(C(=O)Nc3ccc(F)cc3)=C(C)Nc3nc(CCCO)nn32)cc(OC)c1OC (configuration not stated)
    /, -2.7, /, /, -4.8
O=C(Nc1nc2c(ccc3ccccc32)s1)c1ccco1
    /, -21.0, /, /, -14.7
O=C(Nc1ccc(S(=O)(=O)NCCc2ccccc2)cc1)c1ccc(Br)o1
    i, 4.5, i, i, -15.4
CCOc1ccc(-c2nc(C#N)c(NCc3ccc4c(c3)OCO4)o2)cc1
    i, -4.7, i, i, -1.4
CCCC(=O)Nc1nnc(Sc2ccc(N(C)C)cc2)s1
    i, 6.1, i, i, -2.7
O=c1ccc2cc3c([nH]c4ccc(Br)cc43)oc-2c1O
    i, -0.5, i, i, -19.5
O=C(CSc1nc2ccccc2nc1SCC(=O)N1CCOCC1)N1CCOCC1
    i, 14.2, i, i, 4.9
O=C(C1CC1)N1CCN=C1SCc1ccccc1Cl
    /, -6.4, /, /, 1.8
O=C1NCCNC1(c1c[nH]c2ccccc12)C(F)(F)F (configuration not stated)
    /, 1.5, /, /, -6.0
CCN(CC)CCCN1C(=O)C(=O)/C(=C(/O)c2ccc(C)cc2)C1c1ccccn1 (configuration not stated)
    i, 8.9, i, i, 2.8
CC(Sc1sc(=S)sc1SC(C)C(=O)O)C(=O)O (configuration not stated)
    /, 8.0, /, /, 18.0
COc1ccc(C2C(C(=O)c3sc(C)nc3C)=C(O)C(=O)N2CCN(C)C)cc1 (configuration not stated)
    i, -2.0, i, i, 3.7
CCN(CC)CCN1C(=O)C(O)=C(C(C)=O)C1c1ccc(OC)c(OC)c1 (configuration not stated)
    /, -6.3, /, /, -12.8
O=C(CN1C(=O)c2ccccc2S1(=O)=O)NCc1ccccc1Cl
    i, -2.7, i, i, -2.3
CCCCCSc1nnc(-c2cc(Br)ccc2N)c(=O)[nH]1
    /, -0.4, /, /, 1.1
CC1CCN(c2oc(-c3ccccc3F)nc2C#N)CC1
    i, -11.1, i, i, -10.3
O=C(O)c1ccc2c(c1)[C@@H]1C=CC[C@@H]1[C@H](c1ccccn1)N2
    /, 1.0, /, /, -3.2
CCCCNC(=O)CN1C(=O)C(CC)Oc2ccc(Cl)cc21 (configuration not stated)
    /, 0.0, /, /, 0.8
O=C(COc1nnc2ccccn12)N1CCN(S(=O)(=O)c2ccccc2)CC1
    i, -2.3, i, i, -10.9
COc1cccc(NC(=O)N2CCCC2C(=O)NC(C)C)c1 (configuration not stated)
    i, 3.6, i, i, -4.2
COC(=O)C1=C(C)N(Cc2ccco2)C(=O)C1
    i, -1.9, i, i, -4.7
Cc1ccc2c(c1)c1c(n2CC(O)Cn2nc(C)c(Br)c2C)C(=O)CCC1 (configuration not stated)
    /, -5.9, /, /, 1.1
CCCCN1C(=O)C(O)=C(C(C)=O)C1c1ccc(OC)cc1OC (configuration not stated)
    /, -12.6, /, /, -14.0
O=C(c1ccc(CS(=O)(=O)c2ccc(Br)cc2)o1)N1CCCCCC1
    /, 3.2, /, /, 7.9
CCOC(=O)c1ccc(CNC(=O)CSc2nnnn2-c2ccc(Cl)cc2)o1
    /, -8.1, /, /, -5.2

# New compounds follow:
# Second line of a record – VCAM-1 augmentation, FPRL1 ligand, VCAM-1 down, VCAM-1 down imaging, FPR ligand
CCOC(=O)N1CCC(NC(=O)c2ccc3c(c2)N(C)CCS3)CC1
    i, -3.7, i, i, 3.1
COc1ccccc1S(=O)(=O)n1cc(Cc2ccccc2)c(N)n1
    i, 21.5, i, i, 6.9
Cc1ccc2c(c1)N(C(C)C(=O)NCCc1ccccc1)C(=O)CO2 (configuration not stated)
    /, -2.3, /, /, -1.7
CCc1cc(=O)oc2cc(OC(C)=O)cc(OC(C)=O)c12
    i, 2.0, i, i, 18.1
Cc1ccc(-c2ccc(=O)[nH]n2)cc1
    /, -0.1, /, /, -0.9
COc1ccc(N(CC(=O)Nc2cccc(C)c2C)S(=O)(=O)c2c(C)n[nH]c2C)cc1
    /, -0.6, /, /, -0.3
CCN(CCCNC(=O)COc1cc(=O)n(CC)c2ccccc12)c1ccccc1
    i, 2.3, i, i, -1.9
COc1ccc(-c2c(C)oc3c(CN4CCCCC4C)c(O)ccc3c2=O)cc1OC (configuration not stated)
    /, -3.0, /, /, -2.7
O=C(c1ccccc1Cl)N1CCc2ccccc2C1
    i, -6.6, i, i, -5.6
Cc1ccccc1NC(=O)C1CCCN(S(=O)(=O)c2c(C)noc2C)C1 (configuration not stated)
    /, 1.6, /, /, 1.5
COc1ccc(-c2nnc(SCC(=O)N3CCCCC3)o2)cc1OC
    i, -0.9, i, i, 0.4
c1ccc(-n2cnc3cc(NCc4ccccn4)ccc32)cc1
    i, 4.6, i, i, 4.1
O=C(CSc1nc2ccccc2c(=O)n1C1CC1)NCc1ccccc1
    /, -3.1, /, /, 1.7
CCOC(=O)CCc1c(C)nc2cc(-c3ccc(F)cc3)[nH]n2c1=O
    i, -6.1, i, i, 0.5
O=C1CCCN1CCCNc1ncnc2c1[nH]c1ccc(Cl)cc12
    i, -7.7, i, i, 3.2
O=C(CN1CCN(Cc2ccccc2F)C1=O)NCc1cccnc1
    i, -0.9, i, i, 1.0
O=C1C2C3C=CC(C3)C2C(=O)N1CNc1ccc(O)cc1 (configuration not stated)
    i, 10.1, i, i, 1.5
Cn1c(Cn2c(=O)sc3ccccc32)nnc1SCC(=O)N1CCCC1
    /, 1.7, /, /, -6.3
COc1cccc(C2C(C(=O)c3cccs3)=C(O)C(=O)N2c2cc(C)on2)c1 (configuration not stated)
    /, 5.3, /, /, 12.1
CCn1c(N)c(C(=O)NCC2CCCO2)sc1=S (configuration not stated)
    /, -0.4, /, /, 5.2
COc1ccc(-c2cn3cccnc3n2)cc1NC(=O)c1ccc(Br)o1
    /, 10.4, /, /, 3.0
Cc1nnc(SCc2nc3ccccc3s2)n1-c1ccccc1
    i, -5.7, i, i, -6.8
CCCSc1nnc(-c2ccccc2NC(=O)CC)c(=O)[nH]1
    i, 4.5, i, i, 2.9
O=C(CCS(=O)(=O)c1cccs1)N1CCCC1
    /, -9.1, /, /, -5.3
CCOCCCNC(=O)CCCn1nc(C)n2c(cc3sccc32)c1=O
    /, 3.9, /, /, 11.0
CCN1C(=O)C2(C(C#N)=C(N)Oc3cc(C)oc(=O)c32)c2ccccc21 (configuration not stated)
    /, 0.9, /, /, -5.8
CCOC(=O)C1CCN(C(=O)C2CCN(S(=O)(=O)c3cc(Cl)ccc3Cl)CC2)CC1
    i, -0.8, i, i, -16.2
CN(C)C(=O)N1CCC(C(=O)NCC2CCCO2)CC1 (configuration not stated)
    /, 3.3, /, /, 2.4
CCOC(=O)C1=C(c2ccccc2)N2CCS(=O)(=O)N=C2S1
    i, 0.8, i, i, 0.7
CCc1ccccc1NC(=O)COC(=O)C1CC(=O)N(c2ccc(F)cc2)C1 (configuration not stated)
    /, 1.5, /, /, -8.4

# One compound at a time, from the list above. Order of values: VCAM-1 augmentation | FPRL1 ligand | VCAM-1 down | VCAM-1 down imaging | FPR ligand
# Entry for CCN1C(=O)C2(C(C#N)=C(N)Oc3cc(C)oc(=O)c32)c2ccccc21 (configuration not stated) = / | 0.9 | / | / | -5.8
# Entry for O=C1C2C3C=CC(C3)C2C(=O)N1CNc1ccc(O)cc1 (configuration not stated) = i | 10.1 | i | i | 1.5
# Entry for CCc1ccccc1NC(=O)COC(=O)C1CC(=O)N(c2ccc(F)cc2)C1 (configuration not stated) = / | 1.5 | / | / | -8.4
# Entry for CCOCCCNC(=O)CCCn1nc(C)n2c(cc3sccc32)c1=O = / | 3.9 | / | / | 11.0

# Going on with the list:
# Second line of a record – VCAM-1 augmentation, FPRL1 ligand, VCAM-1 down, VCAM-1 down imaging, FPR ligand
Cn1cnnc1SCC(=O)OCN1C(=O)c2ccccc2C1=O
    /, -9.9, /, /, 0.8
COc1ccccc1N1CCN(S(=O)(=O)CC23CCC(CC2=O)C3(C)C)CC1 (configuration not stated)
    i, -1.2, i, i, 1.4
Cc1ncoc1C(=O)Nc1cccc(Cl)c1
    /, 2.5, /, /, -1.5
COC(=O)c1ccc(CSc2ccccc2C)o1
    /, -4.6, /, /, 0.5
COc1ccc(N(CC(=O)Nc2cc(C)ccc2C)S(=O)(=O)c2c(C)nn(C)c2C)cc1
    i, -0.5, i, i, 0.9

# These rows are one share of the data. The share of hits here may be higher or lower than overall.
